# Arbovirus anti: arbovirus infection inhibition; arbovirus infection cell-based antiviral screen; inhibition, % at 10 µM; 200,000 tested, 0.37% active;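 active means inhibition from about 30%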;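 further: bluetongue infection of BSR cells; cell survival read as ATP light after 72 h; 0% = infected wells without compound and 100% = uninfected wells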
# RecA splice inh: inhibitors of M. tuberculosis RecA intein splicing; P9WHJ3; cell-free RecA intein splicing, fluorescence; inhibition, %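 (about 9 µM by stock and volumes)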; 290,000 tested, 0.75% active; AID 2221; in the data active means inhibition above about 30%; inconclusive means no clear call, values can overlap the other calls;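 further: 0% = vehicle wells and 100% = reference inhibitor control wells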
# Target sequence (P9WHJ3 whole entry, looked up, canonical isoform): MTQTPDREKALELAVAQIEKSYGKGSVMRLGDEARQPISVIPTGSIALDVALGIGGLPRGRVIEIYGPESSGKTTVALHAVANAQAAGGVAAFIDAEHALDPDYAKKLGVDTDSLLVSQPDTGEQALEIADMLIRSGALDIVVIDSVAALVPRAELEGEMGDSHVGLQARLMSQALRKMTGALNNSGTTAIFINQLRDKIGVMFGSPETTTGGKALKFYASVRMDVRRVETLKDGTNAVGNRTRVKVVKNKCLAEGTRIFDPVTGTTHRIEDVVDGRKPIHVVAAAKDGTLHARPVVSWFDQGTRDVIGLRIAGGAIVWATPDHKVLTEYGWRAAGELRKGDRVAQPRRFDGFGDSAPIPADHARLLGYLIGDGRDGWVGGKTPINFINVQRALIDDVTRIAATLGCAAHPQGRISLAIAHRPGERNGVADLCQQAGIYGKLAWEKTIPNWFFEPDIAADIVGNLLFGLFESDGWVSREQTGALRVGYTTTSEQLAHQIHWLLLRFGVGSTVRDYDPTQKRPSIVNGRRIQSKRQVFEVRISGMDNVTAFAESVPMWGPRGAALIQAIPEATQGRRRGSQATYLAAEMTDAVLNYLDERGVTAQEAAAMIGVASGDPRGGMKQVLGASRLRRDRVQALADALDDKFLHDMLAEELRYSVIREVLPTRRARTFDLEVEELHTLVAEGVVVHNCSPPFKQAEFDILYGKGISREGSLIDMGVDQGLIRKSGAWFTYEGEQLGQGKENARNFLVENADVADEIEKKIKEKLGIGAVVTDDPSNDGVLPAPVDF
# Mtb bLac sens: beta-lactam sensitization of Mtb H37Rv. M. tuberculosis H37Rv growth with meropenem, percent inhibition; hits of this screen are not shown here. inhibition, % at 25 µM. 330,000 tested, 0.27% active. AID 434955;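 active means about 74% or more and at least 40 points above the plate without the antibiotic, then above 30% in a dose series; inconclusive means first-round hits that could not be retested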;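 further: growth measured after seven days incubation then overnight dye step; 0% = bacteria only wells and 100% = bacteria with antibiotic; twin plates without the antibiotic show which effects depend on it; some results filed as inactive read as strong as hits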
# Mtb H37Rv: M. tuberculosis H37Rv growth inhibitors, H37Rv strain (AID 1626); M. tuberculosis H37Rv growth inhibition; higher % means a stronger effect; inhibition, % at 10 µM, or IC50 in µM where a hit was titrated; 220,000 tested, 0.95% active;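 active means confirmed in a dose series; inconclusive means inhibition above 80% but not taken into the dose series; inactive means below 80% or under 30% at every dose of the series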;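 further: bacteria incubated seven days before Alamar blue readout; 0% = bacteria only wells and 100% = bacteria with antibiotic wells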
# YopH PTP inh: inhibitors of Yersinia enterocolitica YopH tyrosine phosphatase. fluorescence Ex485/Em525. inhibition, %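 (about 10 µM by stock and volumes)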. 140,000 tested, 0.16% active;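 active means inhibition of 50% or more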;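 further: controls were vehicle for no effect and minimum signal wells for full effect; inactives centre near -20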
# Arbovirus anti repeat: further read-out of Arbovirus anti, marked with its call; inhibition, %; measured here: 10K subset replicate screen; many hits read low in the repeat;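 first of two repeat runs on a subset; 0% = infected and 100% = uninfected wells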
# Active calls of the source: *; i = inactive; ? = inconclusive; / = not tested or not shown.
SMILES,Arbovirus anti,RecA splice inh,Mtb bLac sens,Mtb H37Rv,YopH PTP inh,others
O=C(NC(Cc1ccccc1)C(=O)NC(Cc1ccccc1)C(=O)O)c1ccccc1 (centres undefined),-3,-0.8,-6,-5%,/,
CCN1CCOC(CC(=O)Nc2cccc([N+](=O)[O-])c2)C1=O (centres undefined),/,0.7,2,-4%,/,
CCCN1CCN(CCNC(=O)Nc2cc(C)ccc2C)CC1,/,1.3,-4,/,/,
O[C@@H]([C@H](O)[C@H](O)CBr)[C@H](O)CBr,/,2.3,-3,-3%,/,
CN1CCN(S(=O)(=O)c2cccc(S(=O)(=O)c3ccc(Cl)c(Cl)c3)c2)CC1,-1,-14,-4,5%,11,Arbovirus anti repeat=4
O=C(Nc1ccccc1)/C(=C/c1ccccc1)c1ccccc1,-3,15,12,3%,-10,
Cc1ccc(N2CC(C(N)=O)CC2=O)cc1 (centres undefined),-4,-1.6,-3,1%,-36,
COc1ccccc1C1(CC(=O)N2CCCCC2)CCOC(C(C)C)C1 (centres undefined),5,3.3,-6,/,-63,
CCCc1c(C(=O)N/N=C(\C)CCc2ccccc2)nnn1-c1nonc1N,/,-2.6,9,/,/,
CC1(C)C(c2ccccc2)=NC(c2ccc(Br)cc2)N1O (centres undefined),-6,-1.2,21,-10%,/,
COc1ccccc1N(CC(=O)NCC1CCCO1)C(=O)CCC(=O)Nc1cc(C)on1 (centres undefined),/,-0.3,-6,/,/,
CCC(C)Sc1cccc(-c2nc3ccc(C)cn3c2NC2CCCCC2)c1 (centres undefined),/,4.6,-2,/,/,
CCOc1ccc(N2C(=O)Nc3ccccc3C2(O)C(=O)NCc2ccccc2)cc1 (centres undefined),-4,0.4,2,-6%,/,
CN(C(=O)c1cc(S(=O)(=O)N2CCOCC2)cs1)c1ccccc1,/,-2.5,-5,/,/,
COc1ccc(C(CC(=O)O)NS(=O)(=O)c2ccc(C)cc2)cc1OC (centres undefined),8,1.6,-1,3%,5,

# Six compounds picked at random from the list so far:
SMILES,Arbovirus anti,RecA splice inh,Mtb bLac sens,Mtb H37Rv,YopH PTP inh,others
CCN1CCOC(CC(=O)Nc2cccc([N+](=O)[O-])c2)C1=O (centres undefined),/,0.7,2,-4%,/,
CC1(C)C(c2ccccc2)=NC(c2ccc(Br)cc2)N1O (centres undefined),-6,-1.2,21,-10%,/,
CCCN1CCN(CCNC(=O)Nc2cc(C)ccc2C)CC1,/,1.3,-4,/,/,
O[C@@H]([C@H](O)[C@H](O)CBr)[C@H](O)CBr,/,2.3,-3,-3%,/,
COc1ccccc1N(CC(=O)NCC1CCCO1)C(=O)CCC(=O)Nc1cc(C)on1 (centres undefined),/,-0.3,-6,/,/,
COc1ccccc1C1(CC(=O)N2CCCCC2)CCOC(C(C)C)C1 (centres undefined),5,3.3,-6,/,-63,

# Following part.
SMILES,Arbovirus anti,RecA splice inh,Mtb bLac sens,Mtb H37Rv,YopH PTP inh,others
COC(=O)c1ccc(OCC(=O)Nc2nn(-c3ccccc3)nc2C(N)=O)cc1,0,1.4,8,-2%,10,
O=C(O)CCCNC(=O)c1cncc(O)c1,1,1.2,-3,2%,-2,
CCOC(=O)Cc1csc(NC(=O)CSc2nc3cccnc3n2CC)n1,7,4.7,-5,/,-35,
COc1cc(C(=O)N/N=C(\C)Cc2ccccc2)cc(OC)c1OC,-10,1.3,1,4%,-13,
O=S(=O)(Nc1ccccn1)c1ccc(Oc2ccccc2)cc1,2,-1.0,-2,-6%,-38,
CC(=O)Nc1cccc(NS(=O)(=O)Cc2ccc(Cl)cc2)c1,-2,-0.4,-6,-3%,-15,
S=C(c1ccc(N2CCOCC2)cc1)N1CCOCC1,8,-0.9,-6,-5%,26,
Cc1ccccc1C(=O)N(C)Cc1ccccc1,2,-0.5,-10,2%,-20,
COc1ccc2oc(C(=O)NCC(c3ccco3)N(C)C)c(C)c2c1 (centres undefined),/,-0.9,-9,/,/,
Cc1cccc(-c2ncc(CN3CCN(CCC(C)C)C(CCO)C3)cn2)c1 (centres undefined),-3,-0.6,-11,5%,/,
Cc1nn(C)c(C)c1S(=O)(=O)N1CCC(C(=O)Nc2ccc3c(c2)OCCO3)CC1,5,5.0,0,-2%,-48,
O=C(N/N=C/c1cc2ccccc2nc1Cl)/C(=C/c1cccs1)NC(=O)c1ccccc1,-15,0.6,-4,-2%,2,
COc1ccccc1C(=O)Nc1nnc(SCC(=O)NCC2CCCO2)s1 (centres undefined),/,-0.9,?,/,/,
N=c1oc2cc(O)ccc2cc1C(=O)Nc1nc2ccccc2s1,5,i,-4,-2%,-215,
CN(C)[C@@H]1CCC[C@H]1OC(=O)C(c1ccccc1)c1ccccc1,0,2.9,-8,3%,-21,
CCCCCCOC(=O)CCn1[nH]c(=O)c2ccccc2c1=O,0,-0.1,-7,-14%,-34,
CCN(CC)C(=O)c1cn(-c2cccc(OC)c2)c(=O)c2ccccc12,/,-1.5,0,/,/,
CC(C)(C)C(=O)Nc1nnc(CC(=O)NCc2ccccc2)s1,-5,0.2,0,6%,/,
Cc1cc(C)n2nc(C(=O)Nc3ccn(Cc4ccccc4C)n3)cc2n1,/,-2.0,3,-5%,/,
O=C(COC(=O)c1c(F)cccc1F)Nc1ccccc1OC(F)F,/,-0.9,3,/,/,
CCc1c(C#N)c(SCCC(=O)Nc2ccc(F)cc2)nc2c1C(=O)CC(C)(C)C2,-16,9.2,0,6%,-14,
COC(=O)/C=C1/SC(=NC(=O)c2ccc(OC)cc2)NC1=O,/,2.6,0,/,/,
CC(Sc1nnc(COc2ccc([N+](=O)[O-])cc2)n1-c1ccccc1)C(=O)O (centres undefined),5,1.6,-6,-6%,/,
Cc1cccc2c(SCC(=O)NCC3CCCO3)nc(-c3ccc(F)cc3)nc12 (centres undefined),-5,0.1,0,-9%,-29,
COc1ccc2[nH]c(=O)c(CN(CCN3CCCC3)C(=O)Nc3ccccc3Cl)cc2c1,6,2.5,-10,2%,/,
COc1ccc(S(=O)(=O)NCCc2ccncc2)cc1,/,-1.8,-11,/,/,
Cc1cc2oc(=O)cc(CN3CCCCC3)c2cc1O,/,0.2,4,/,/,
CCn1c(C)nc2cc(C(=O)NNC(=S)Nc3ccccc3)ccc21,3,-2.0,-3,-2%,/,
O=C(N/N=C/c1sc2ccccc2c1O)c1cccc2ccccc12,-35,0.7,-3,-3%,-48,
NS(=O)(=O)c1ccc(NC(=S)N2CCc3ccccc32)cc1,/,-0.7,8,/,/,
COc1ccc(C)cc1NC(=O)C1CCCN(S(=O)(=O)c2ccc3[nH]c(=O)ccc3c2)C1 (centres undefined),/,-1.5,-1,/,/,
COc1ccc(/C=C/C(=O)NC(=S)Nc2ccc(S(=O)(=O)Nc3cc(C)on3)cc2)cc1,/,5.6,3,/,/,
CCn1c(C)nc2cc(C(=O)NNC(=S)Nc3ccccc3OC)ccc21,/,0.2,4,-18%,/,
O=C(CCNC(=O)C1CCN(S(=O)(=O)c2ccc(F)cc2)CC1)NCc1ccc(F)cc1,/,-4.3,-1,/,/,
CC(C)c1ccc(NC2CCCN(C(=O)CN3C(=O)CSC3=O)C2)cc1 (centres undefined),/,-0.3,-5,/,/,
Cc1cc(C)cc(NS(=O)(=O)c2ccc(NC(=O)c3ccccc3C(=O)O)cc2)c1,/,2.9,-2,/,/,
CCOC(=O)c1sc(=S)n(-c2ccc3c(c2)OCO3)c1N,5,1.0,1,3%,-38,
COC(=O)C[C@]1(C(=O)OC)CN(C#N)N(c2ccc(Cl)cc2)C12c1ccccc1-c1ccccc12,-32,74*,87,?,-13,
CNC(=O)COC(=O)CNC(=O)c1cc(Cl)cc([N+](=O)[O-])c1,8,-0.1,2,-3%,/,
O=C(CNC(=O)c1ccco1)NCCCc1ccccc1,7,2.2,5,-6%,-12,
COc1ccc2nc(C(F)(F)C(F)(F)F)c(C#N)c(N)c2c1,2,-1.3,-5,9%,-16,
CCOc1ccc(NS(=O)(=O)c2ccc3[nH]cc(C(=O)NC(C)CC)c(=O)c3c2)cc1 (centres undefined),-5,2.5,-4,/,-48,
CC(=O)c1ccc(NC2OC(C)C(O)C(O)C2O)cc1 (centres undefined),4,-1.4,-13,-4%,2,
CCOCCCNS(=O)(=O)c1ccc(NC(=O)Cc2c(F)cccc2Cl)cc1,4,0.8,-4,6%,/,
CCN(CC)C(=O)Cn1nc(-c2ccncc2)nc1SCC(=O)Nc1ccc(OC)cc1,/,4.1,-3,/,/,

# Filtered by structure: those above containing a nitro group on carbon
SMILES,Arbovirus anti,RecA splice inh,Mtb bLac sens,Mtb H37Rv,YopH PTP inh,others
CCN1CCOC(CC(=O)Nc2cccc([N+](=O)[O-])c2)C1=O (centres undefined),/,0.7,2,-4%,/,
CC(Sc1nnc(COc2ccc([N+](=O)[O-])cc2)n1-c1ccccc1)C(=O)O (centres undefined),5,1.6,-6,-6%,/,
CNC(=O)COC(=O)CNC(=O)c1cc(Cl)cc([N+](=O)[O-])c1,8,-0.1,2,-3%,/,

# Following part
SMILES,Arbovirus anti,RecA splice inh,Mtb bLac sens,Mtb H37Rv,YopH PTP inh,others
Cc1nn(CC(O)COc2ccc3c(c2)CCC3)c(C)c1Br (centres undefined),5,2.5,18,19%,-35,
COCC(=O)N1CCC(Oc2ccc(C(=O)N3C[C@@H](C)O[C@@H](C)C3)cc2)CC1,/,-0.5,-6,/,/,
Cc1c(C(=O)O)sc2nc(/C=C/c3ccccc3OC(F)F)[nH]c(=O)c12,/,-12,0,/,/,
COC(=O)c1ccc(Cl)cc1NC(=O)/C=C/c1ccc(C)o1,2,2.5,1,-3%,-10,
O=C1CC(N(Cc2cccs2)C(=O)Nc2ccccc2)C(=O)N1c1ccc(Cl)cc1 (centres undefined),-1,2.8,8,1%,-17,
COC(=O)c1cc(NC(=O)Cn2c(=O)oc3ccccc32)cc(C(=O)OC)c1,/,-1.1,1,/,/,
CCOc1ccc2nc(SCC(=O)c3ccc(Cl)s3)sc2c1,-3,0.3,-7,-5%,4,
Cc1cc(CNC(=S)Nc2ccc(S(=O)(=O)Nc3ncccn3)cc2)nn1C,/,-1.6,-3,/,/,
Cn1nc(-c2ccccc2)c(C(O)c2ccccc2C(F)(F)F)c1Cl (centres undefined),3,2.9,-5,-6%,-22,
COc1ccc(C(=O)N2N=C(c3cccc(NS(C)(=O)=O)c3)CC2c2cccs2)cc1 (centres undefined),/,6.7,3,/,/,
CC/C(=N/O)c1cnnc(SC)n1,5,4.4,-4,0%,-8,
C=CCN1CC(=O)N2Cc3[nH]c4ccccc4c3C[C@H]2C1=O,/,-2.3,7,/,/,

# The list is partial, so the mix of outcomes need not match the whole.
